miR-21 FLuc: raises the signal of a miR-21 reporter. HeLa miR-21 FLuc reporter, luciferase, 48 h. Potency, µM (series often up to 38.3 µM), for the others: top-dose reporter change, positive = more light. 340,000 tested, under 10 active. AID 2288; active = well fitted rising curve with a large enough effect; inconclusive = small, poorly fitted or top-dose-only effect; inactive = no such curve, though single readings can be large or run the other way;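 further: % of control where 0% means no effect; miR-21 action dims this reporter so a rising signal means less miR-21 action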
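Compounds were titrated across several concentrations (up to approximately 40 uM) and incubated 48 hours with HeLa miR-21-FLuc reporter cells (miR-21 target sequence downstream of FLuc, endogenous miR-21). Readout was firefly luciferase luminescence after lytic detection reagent.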
Numbers without * were called inactive; u = inconclusive.

Start of the data: the first four compounds, ahead of the listing:
miR-21 FLuc | SMILES
-8% | COc1ccc2c(CNCCc3ccco3)c(C(=O)O)n(Cc3ccc(C)cc3)c2c1
2% | CC1(C)C(=O)N(CC(=O)Nc2ccc(Br)cc2F)c2ccccc21
11% | Fc1ccc(Nc2nc(SCc3ccc(Cl)cc3)nc3ccccc23)cc1
-1% | Cn1c(=O)c2c(nc(SCC(=O)Nc3ccccc3F)n2Cc2ccccc2F)n(C)c1=O

The listing, from the start:
miR-21 FLuc | SMILES
-8% | COc1ccc2c(CNCCc3ccco3)c(C(=O)O)n(Cc3ccc(C)cc3)c2c1
2% | CC1(C)C(=O)N(CC(=O)Nc2ccc(Br)cc2F)c2ccccc21
11% | Fc1ccc(Nc2nc(SCc3ccc(Cl)cc3)nc3ccccc23)cc1
-1% | Cn1c(=O)c2c(nc(SCC(=O)Nc3ccccc3F)n2Cc2ccccc2F)n(C)c1=O
2% | COc1ccc(OC)c(C2C(C(=O)N3CCCCC3)=C(C)Nc3nc4ccccc4n32)c1 (centres undefined)
-4% | Cc1nc2ccc(S(=O)(=O)NC(C(=O)N3CCN(c4cccc(Cl)c4)CC3)C(C)C)cc2s1 (centres undefined)
-1% | Cn1c(=O)c2c(nc(N3CCOCC3)n2Cc2ccccc2F)n(C)c1=O
-13% | CCOC(=O)c1cccc(NS(=O)(=O)c2cc(-c3cnc(C)o3)ccc2OC)c1
4% | COc1cc(NS(=O)(=O)c2ccc3[nH]c4c(c3c2)CCCCCC4)cc(OC)c1
-1% | Cc1ccc(C)c(N2CCN(C(=O)c3cc4cc5ccc(C)cc5nc4s3)CC2)c1
-10% | CC(CNC(=O)CCCn1c(=O)c2cccn2c2cccnc21)c1ccccc1 (centres undefined)
5% | CC(=O)Nc1nnc(SCc2cc(=O)c3cccc(Cl)c3[nH]2)s1
-30% | CC(=O)N1CCc2c(sc3c2c(=O)n(-c2ccccc2)c(=O)n3CC(=O)Nc2cc(C)cc(C)c2)C1
-4% | Cc1ccc(C)c(N2CCN(CCCNC(=O)c3ccc4nc(CCc5ccccc5)oc4c3)CC2)c1
7% | CCOc1ccc(Sc2cc(C(=O)NCc3ccccc3Cl)c3ccccc3n2)cc1
-27% | COc1cc(-c2noc(-c3ccc(N4CCCC4)c([N+](=O)[O-])c3)n2)cc(OC)c1OC
1% | Cc1cc(C)cc(-n2c(-c3ccccc3)c(C)n3c4c(=O)n(C)c(=O)n(C)c4nc23)c1
-7% | CCCc1cnc2c(c1SCc1cccc(F)c1)c(=O)n(C)c(=O)n2C
1% | Cc1oc2ncnc(N3CCCCC3)c2c1C(=O)NCC1CCN(Cc2ccc(F)cc2)CC1
1% | Nc1cc(=O)nc(SCC(=O)Nc2ccc(F)cc2)n1CCc1ccccc1
8% | Cc1ccc(CCNC(=O)c2c[nH]c3ccc(S(=O)(=O)Nc4cccc(C(F)(F)F)c4)cc3c2=O)cc1
15% | O=C(Nc1cccc(Cl)c1)c1c(NC(=O)C(F)(F)F)sc2c1CCCC2
0% | COc1ccc(NC(=O)C2=C(C)Nc3nc(SC)nn3C2c2cc(OC)ccc2OC)cc1 (centres undefined)
-5% | Cc1cc(-c2ccc(S(=O)(=O)Nc3cccc(C(F)(F)F)c3)s2)on1
17% | CN(C)c1cccc(C(=O)N2CCC(c3ccncc3)CC2)c1
-11% | O=C(/C=C/c1ccccc1)Nc1nc2n(n1)C(c1ccc(F)cc1)C=C(c1ccccc1)N2 (centres undefined)
21% | COc1ccc(OC)c(CCNC(=O)c2cnn(-c3ccccc3Cl)c2C2CCN(C(=O)OC(C)(C)C)CC2)c1
0% | CCOC(=O)c1c(S(=O)(=O)N2CCC(C(=O)NCc3cccc(C)c3)CC2)c(C)n(C)c1C
0% | CCN(Cc1ccccc1)C(=O)Cn1c(=O)n(-c2ccc(F)c(Cl)c2)c(=O)c2sc3ccccc3c21
-1% | CCOc1ccc(C(=O)c2cn(Cc3cccc(OC)c3)c3cc4c(cc3c2=O)OCO4)cc1
15% | Cc1nc(C)c(-c2ccc(SCC(=O)Nc3ccc(F)c(F)c3)nn2)s1
-1% | Cc1noc(-c2ccc(-c3noc(-c4ccc(F)cc4)n3)cc2)n1
-11% | CC(C)CCNC(=O)C(=O)Nc1c2c(nn1-c1ccccc1)CS(=O)(=O)C2
4% | Cc1ccc(NC(=O)c2ccc(NC(=O)N3CCSc4nc(C)cc(C)c43)cc2)c(Cl)c1
5% | O=C(c1cc2c(s1)-c1ccccc1OC2)N1CCN(c2ccccc2F)CC1
20% | Cc1ccc(CN2CCCn3nc(C(=O)NCc4ccc(OC(C)C)cc4)cc3C2=O)cc1

Shown field by field: part of the list above.
SMILES: CN(C)c1cccc(C(=O)N2CCC(c3ccncc3)CC2)c1
  miR-21 FLuc: 17%
SMILES: O=C(/C=C/c1ccccc1)Nc1nc2n(n1)C(c1ccc(F)cc1)C=C(c1ccccc1)N2 (centres undefined)
  miR-21 FLuc: -11%
SMILES: COc1ccc(OC)c(CCNC(=O)c2cnn(-c3ccccc3Cl)c2C2CCN(C(=O)OC(C)(C)C)CC2)c1
  miR-21 FLuc: 21%
SMILES: CCOC(=O)c1c(S(=O)(=O)N2CCC(C(=O)NCc3cccc(C)c3)CC2)c(C)n(C)c1C
  miR-21 FLuc: 0%

Remaining list, next part
miR-21 FLuc | SMILES
-15% | Cc1cc(C)cc(OCC(=O)Nc2cccc3cccnc23)c1
6% | CCOc1ccc(CNC(=O)CCc2c(C)nn(-c3ccc(N4CCCCC4)nn3)c2C)cc1
0% | Cc1ccc(C(=O)n2nc(-c3ccco3)nc2NCc2cccs2)cc1
13% | CCCSc1nc2sc3c(c2c(=O)n1-c1ccc(C)c(Cl)c1)CCN(C(C)=O)C3
-3% | COc1cccc(CNC(=O)CCC(=O)N2CC3CCCN3c3ccccc32)c1 (centres undefined)
-4% | Cc1csc2nc(COC(=O)c3ccc(NC(=O)C(C)Oc4ccccc4)cc3)cc(=O)n12 (centres undefined)
3% | CCc1ccc(NC(=O)N2CCN(C(=O)c3nsc4ccccc34)CC2)cc1
-1% | CCOc1ccc2oc(=O)cc(CN3CCN(C(=O)c4ccc(OC)c(OC)c4)CC3)c2c1
0% | Cc1ccc2ncc(C(=O)Nc3ccc(OC(F)(F)F)cc3)c(=O)n2c1
4% | O=C(CCn1ccc2cc(S(=O)(=O)N3CCCC3)ccc21)NCc1cccc(Cl)c1
-1% | CSCCC(NS(=O)(=O)c1ccc2c(c1)oc(=O)n2C)C(=O)N1CCN(c2ccc(C(C)=O)cc2)CC1 (centres undefined)
-17% | COc1ccc(C(=O)N2CCc3cc(OC)c(OC)cc3C2COc2ccc3c(C)cc(=O)oc3c2)c(OC)c1 (centres undefined)
-2% | CCc1ccc(NC(=O)c2cc3c(=O)n(Cc4cccnc4)ccc3nc2C)cc1
2% | Cn1c(=O)c2cc(C(=O)NCCCN3CCN(c4cccc(Cl)c4)CC3)sc2c2ccccc21
1% | COc1cccc(C(c2c(O)cc(C)n(Cc3ccco3)c2=O)N2CCC(C)CC2)c1 (centres undefined)
4% | CSc1ncc(C(=O)NCc2cccc(C)c2)c(-c2ccccc2)n1
3% | COc1ccc(-n2c(C)nc3c(cnn3-c3ccc(F)cc3)c2=O)cc1
2% | COc1ccc(-c2cc(OC(=O)c3ccccc3C)c3c(C)oc(C)c3c(=O)c2)cc1
-24% | CCC(C(=O)NCCc1ccc(OC)c(OC)c1)n1nc(C)c2sc3ccccc3c2c1=O (centres undefined)
4% | COc1ccc(-c2noc(-c3ccc(N4CCOCC4)c([N+](=O)[O-])c3)n2)cc1
1% | O=C(Nc1nnc(S(=O)(=O)N2CCCc3ccccc32)s1)c1ccccc1Cl
6% | CCN(c1ccccc1)c1nnc(NC(=O)Nc2ccc(Br)c(C)c2)s1
1% | CCN(CC)c1ccc(NC(=O)C(NS(=O)(=O)c2cccs2)C(C)C)c(C)c1 (centres undefined)
-21% | CCC(C)OC(=O)/C(C#N)=C\c1ccc(-c2ccccc2Cl)o1 (centres undefined)
-3% | Cc1ccc(NC(=O)C(Cc2ccccc2)NS(=O)(=O)c2ccc3c(c2)oc(=O)n3C)cc1C (centres undefined)
15% | CCc1ccc2occ(CC(=O)Nc3ccc(C)c(C)c3)c2c1
u | Cc1csc2nc(COC(=O)c3ccc(NC(=O)COc4ccccc4F)cc3)cc(=O)n12
-8% | Cc1ccc(CNC(=O)CCc2c(C)nn(-c3ccc(N4CCCCC4)nn3)c2C)cc1
u | COc1ccc(-c2cc(OC(=O)c3cccc(C)c3)c3c(C)oc(C)c3c(=O)c2)cc1
8% | O=C(NCCc1ccc(Cl)cc1)c1ccc(CSCc2cccc(Cl)c2)o1
-1% | CCOC(=O)c1c(NC(C)=O)c2c3c(sc2n1Cc1nc(-c2ccc(Cl)cc2)oc1C)CCCC3
7% | COc1cccc(CN2c3ccccc3-c3nc(SCC(=O)Nc4cccc(C)c4)ncc3S2(=O)=O)c1
2% | Cn1c(=O)c2sccc2n2c(CCC(=O)NCc3ccc(Cl)cc3)nnc12
-2% | CCC(Sc1nc2ncccc2[nH]1)C(=O)Nc1cccc(OC)c1 (centres undefined)
-2% | Cc1ccc(/C=C(\C#N)c2nc(-c3cc4c(ccc5ccccc54)oc3=O)cs2)cc1
-5% | CCOc1ccccc1N(CC)C(=O)c1cc2c(=O)[nH]c3ccc(C)cc3c2s1
3% | COc1ccccc1-c1nc2c(c(SCc3ccc(F)cc3Cl)n1)Cc1c(CO)cnc(C)c1O2
3% | COc1cccc(-n2c(=O)c3c(C)c(C(=O)N(C)C)sc3n(CC(=O)Nc3ccc(C)cc3Cl)c2=O)c1
3% | C=Cc1ccc(CSc2nc(-c3ccc(Cl)cc3)nc3c2Cc2c(CO)cnc(C)c2O3)cc1
7% | Cc1ccc(C(C)C)c(OCCn2cc(C(=O)c3ccco3)c3ccccc32)c1
-1% | CC(=O)c1ccc(NC(=O)c2cc(C3CC3)nc3c2c(C)nn3-c2ccc(C)cc2)cc1
-9% | Cc1ccc(-c2nnc(Nc3ccccc3)c3ccccc23)cc1S(=O)(=O)N1CCOCC1
20% | COc1ccc(OCC2c3cc(OC)c(OC)cc3CCN2C(=O)c2ccc(F)cc2)cc1 (centres undefined)
-5% | Cc1ccc(NC(=O)CSc2nc(-c3ccco3)nc3cc(=O)[nH]n23)cc1C
1% | COc1ccc(-n2c(SCC(=O)NCc3ccccc3)nc3n[nH]c(C)c3c2=N)cc1
27% | Cc1cccc(CSc2ncc(CO)n2Cc2ccc(F)cc2)c1
2% | COc1ccc(N2CCN(C3C(=O)c4ccccc4N3C(C)=O)CC2)cc1 (centres undefined)
-7% | CCN(CC)CCNC(=O)c1ccc(CSc2nc3ccncc3n2Cc2cccc(F)c2)cc1
-1% | Cc1ccccc1Cn1c(SCc2ccc(C(=O)N3CCCCC3)cc2)nc2ccncc21
8% | CC1=C(C(=O)Nc2cc(Cl)ccc2C)C(c2cccs2)n2ncnc2N1 (centres undefined)
-1% | CC(=O)N1CCc2c(sc3c2c(=O)n(-c2ccccc2)c(=O)n3CC(=O)c2ccc(Cl)cc2)C1
0% | COc1ccc(NC(=O)CN2C(=O)C(=O)c3ccccc32)c(OC)c1
3% | COc1cc(NC(=O)Cn2c(=O)n(Cc3ccco3)c(=O)c3sc4ccccc4c32)cc(OC)c1
7% | COc1cc(Cl)c(C)cc1NC(=O)CSCc1nc(-c2ccc(OC)c(OC)c2)no1
5% | Cc1cccc(NC(=O)CSc2nc(-c3ccccc3Cl)nc3c2Cc2c(CO)cnc(C)c2O3)c1C
4% | CC(C)Cn1cc(NC(=O)N2CCN(c3ccc(F)cc3)CC2)c2ccccc2c1=O
-2% | O=C(CCCCn1c(=O)c2ccccc2n(CC(=O)Nc2ccc(F)cc2F)c1=O)NCCc1ccccc1
-18% | CC1CCC(NC(=O)c2ccc3c(c2)N(Cc2ccccc2F)C(=O)c2ccccc2S3(=O)=O)CC1 (centres undefined)
-2% | CCOc1ccccc1NC(=O)Cn1c(=O)n(Cc2ccc(OC)cc2)c(=O)c2oc3ccccc3c21
-12% | O=c1c2c3c(sc2nnn1Cc1ccc(F)cc1)CCCC3

Carrying on.
miR-21 FLuc | SMILES
-6% | Cc1ccc(-n2nnnc2CNC(=O)c2ccc(F)cc2)cc1C
20% | COc1ccc(S(=O)(=O)N2CCC(c3ccncc3)CC2)cc1Cl
0% | Cc1oc2ncn(C)c(=O)c2c1C(=O)N(Cc1ccccc1)C(C)C
-2% | CCOc1ccc(N2CC(c3nc4ccccc4n3Cc3ccccc3F)CC2=O)cc1 (centres undefined)
2% | COc1ccc(C(=O)OCc2cc(=O)n3nc(-c4cccs4)sc3n2)cc1
14% | CCOc1ccc(CCNC(=O)c2cn(CC)c3ccc(S(=O)(=O)N4CCCCCC4)cc3c2=O)cc1OCC
-5% | Cc1nc(N2CCOCC2)c2c(C(=O)N(C)c3ccccc3)c(C)oc2n1
-15% | O=c1c(=O)n(-c2ccccc2)ccn1Cc1c(F)cccc1Cl
3% | CC(C)CCNC(=O)CN1C(=O)COc2ccc(S(=O)(=O)N3CCOCC3)cc21
13% | COc1ccccc1OCCn1c(C(C)Oc2ccccc2)nc2ccccc21 (centres undefined)
-2% | Cc1c(C(=O)N2CCC(C)CC2)c(S(=O)(=O)N2CCN(c3cccc(Cl)c3)CC2)c(C)n1C
2% | COc1ccc(C2=C(C)C(=O)N(Cc3ccc(C(=O)NCc4cccc(C)c4)cc3)S2(=O)=O)cc1
-5% | CCCN1C(C(=O)c2ccccc2)=C(OC(=O)c2ccc(OC)cc2)c2ccccc2S1(=O)=O

Bioassay records (PubChem BioAssay)

Not all compounds are listed; the hit share may differ from the screen's.
